Autofluor counter: compound fluorescence in toxin protease inhibitor counterscreen; AID 624483; fluorescence intensity (concentration not given with the values); hit rate 3.1% among 360,000; compound autofluorescence counterscreen, microsphere flow cytometry; active compounds read high;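 active = at least 3 SD above the mean of all compounds, about 16000 in these data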;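 also: 100 nL of 1 mM stock went into each well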
Mtb hypoxia rep: inhibitors of hypoxia-regulated fluorescent reporter in Mycobacterium tuberculosis; M. tuberculosis hypoxia-regulated fluorescent reporter, fluorescence; fluorescence inhibition, % (no concentration beside the values); hit rate 0.1% among 300,000; AID 1159583;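 active = 35 to 45% if threefold the growth effect, above 45% if 1.5-fold the growth effect; inactive = the rest, general growth blockers included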;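 also: wells of about 50 µL received 100 nL stock; 0% = vehicle wells and 100% = reference inhibitor wells; whole bacteria with a GFP reporter of the hypoxia response; strong numbers were not always called active; many hits fall short of the cut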
Sa RN4220 lethal: kills Staphylococcus aureus RN4220; S. aureus RN4220 growth, OD600, 16 h; inhibition, % (test concentration not listed); hit rate 0.33% among 330,000;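 active = z-score of -3 or lower and OD600 up to 0.18 on both plates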;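 also: plate controls were untreated cells for no effect and reference antibiotic for full effect; stock transfer was 100 nL into about 80 µL; one replicate is shown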
ugtP null kill: kills S. aureus RN4220 lacking UgtP; S. aureus RN4220 ugtP deletion, OD600 growth, 16 h; some inactives read as strong as hits; growth inhibition, % (no concentration beside the values); hit rate 0.54% among 330,000;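 active = z-score under -3 and OD600 up to 0.15 on both plates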;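 also: plate controls were untreated wells for no effect and antibiotic for full effect; wells of about 80 µL received 100 nL stock; the first replicate is given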
BJeLR viability: BJeLR cell viability loss. BJeLR (HRASV12) viability, CellTiter-Glo ATP luminescence, 48 h; reference of the scale not given here. inhibition, % (test concentration not listed). hit rate 0.17% among 300,000. AID 1554;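 active = replicate mean above 50%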;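 also: 50 nL library stock added to about 25 µL; numbers are from one replicate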
PrP UTR inh: suppresses PrP 5' UTR mRNA reporter expression | hit rate 0.35% among 340,000 | inhibition, % (concentration not given with the values) | cell-based PrP 5' UTR mRNA reporter, plate reader | AID 488862;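 active = every replicate at 50% or more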;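 also: 0 = median of the neutral control wells; tested in H4 reporter cells; numbers are from one replicate; inactives centre near -14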
Mtb hypoxia rep growth: recorded beside Mtb hypoxia rep, whose call it bears; growth inhibition, %; measured here: M. tuberculosis growth (absorbance);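 0% = vehicle and 100% = reference antibiotic; read after six days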
* = called active by the depositor; · = not tested or not shown.

molecule,Autofluor counter,Mtb hypoxia rep,Mtb hypoxia rep growth,Sa RN4220 lethal,ugtP null kill,BJeLR viability,PrP UTR inh
CC(=O)Nc1ccc(C(=O)NNC(=O)CCCCC(=O)NNC(=O)c2ccc(NC(C)=O)cc2)cc1,6359,0,-3,-0.5,-4,1,-19
Cc1cc(/C=C(/C#N)c2nc3ccccc3[nH]2)c(C)n1-c1cc(C(=O)O)cc(C(=O)O)c1,3938,0,-2,2.1,1,·,-14
CCCCC(=O)NC1(C(F)(F)F)C(=O)Nc2c1c(=O)[nH]c(=O)n2Cc1ccco1 (stereo not given),3218,·,·,-0.9,5,-2,-12
COCCN(C(=O)c1ccc(C)c(S(=O)(=O)N2CCOCC2)c1)c1c(N)n(CC(C)C)c(=O)[nH]c1=O,4065,1,3,1.0,-2,·,-17
CCC(CC)c1nnc(NC(=O)C2CCN(C(=O)c3ccco3)CC2)s1,3747,-10,-12,-1.9,1,7,-20
CCC(C(=O)Nc1cc(OC)c(NC(=O)c2ccccc2)cc1OC)c1ccccc1 (stereo not given),·,-12,-1,3.5,6,-2,9
CCOc1ccccc1C=NNC(=O)Cc1csc(Nc2cccc(C(F)(F)F)c2)n1,·,1,9,0.2,-13,·,·
COC(=O)c1ccc(NC(=O)[C@H](C)NC(N)=O)cc1,4252,7,-3,2.4,-5,-11,-20
O=C(C1CCC(C(=O)N2CCc3ccccc32)CC1)N1CCc2ccccc21 (stereo not given),2801,·,·,4.9,6,-3,-18
CN(CC(N)=O)S(=O)(=O)c1ccc(F)cc1,9819,4,1,1.7,3,17,-29
Cc1ccc(S(=O)(=O)CC(=O)c2ccccc2)cc1,2277,·,·,1.0,-2,5,-32
O=C(Nc1ccc(S(=O)(=O)N2CCc3ccccc3C2)cc1)C1CCCO1 (stereo not given),11273,7,1,8.0,9,7,·
O=C(NCCOc1ccc(Cl)cc1)c1ccco1,3029,10,4,3.5,5,0,-19
COc1ccc2c(c1OC)C(=O)N1C2SC(C)(C)[C@H]1C(=O)NC(C)C (stereo not given in full),3833,-12,1,1.3,-7,-7,2
CCN(CC)CC(O)COc1ccc2c(c1)OCO2 (stereo not given),2180,·,·,-2.9,0,1,-19
CCC(C)N1CC(=O)N2C(c3ccc(OC)cc3OC)c3[nH]c4ccccc4c3C[C@H]2C1=O (stereo not given in full),3779,-12,2,4.0,6,3,·
CCSc1cnnc2ccccc12,2932,19,11,3.1,2,·,-21
CCOc1ccc(C(=O)NCC(=O)OCc2c(C)noc2C)cc1OCC,4616,4,12,11,4,-19,4
COc1ccc(CCNC(=O)c2c(C)nc3ccccn23)cc1OC,3114,21,5,-0.8,0,-3,9
CCOP(=O)(OCC)C(NC(=O)Nc1ccccc1)C(N)=O (stereo not given),2475,5,-3,2.9,1,-15,-15

Only BJeLR viability (two entries from above):
SMILES | BJeLR viability
CN(CC(N)=O)S(=O)(=O)c1ccc(F)cc1 | 17
Cc1ccc(S(=O)(=O)CC(=O)c2ccccc2)cc1 | 5

Additional results follow:
molecule,Autofluor counter,Mtb hypoxia rep,Mtb hypoxia rep growth,Sa RN4220 lethal,ugtP null kill,BJeLR viability,PrP UTR inh
COc1ccc(NC(C)=O)c([N+](=O)[O-])c1[N+](=O)[O-],4250,9,4,11,-5,·,-6
S=C(c1ccc(Cl)cc1)N1CCOCC1,11093,1,4,5.8,8,-11,-10
Cc1ccc(-n2c(Cc3cccs3)nnc2SCC(=O)OC(C)C)cc1,23850*,4,1,4.7,-2,-4,-18
COC(=O)c1sccc1NC(=O)CSc1ccccc1N,4316,10,14,1.6,4,4,-6
CCOC(=O)N1CCC2(CC1)C(C#N)=C(N)OC1=C2C(=O)CC(C)C1 (stereo not given),9337,4,4,2.6,4,3,-19
COc1ccc(C2=NN(C(=O)CN3CCCCC3)C(c3ccc(C)cc3)C2)cc1 (stereo not given),4148,16,5,7.9,2,19,-34
C=CCNc1nc(Cl)ncc1F,9180,2,-3,0.9,7,14,-29
CC(C)(C)N(Cc1ccccc1)C(=O)CSc1nnc(CNc2ccc(F)cc2)o1,17024*,4,7,5.7,-18,-7,-14
COC(=O)c1sc(NC(=O)Cc2cccs2)nc1C,10033,2,0,2.4,5,5,-25
COc1cc(S(=O)(=O)Nc2ccc(Br)cc2)ccc1N,4295,-5,-2,1.0,17,7,-19
c1ccc(C2CC(c3cccs3)=NN2c2ccccc2)cc1 (stereo not given),4896,4,-6,17,-8,-2,-11
COC(=O)CCCC1=CC2=CC(=O)C(C)(OC(=O)c3cccs3)C(=O)C2=CN1Cc1ccccc1 (stereo not given),3130,12,5,8.9,0,5,-31
CCCCN1C(=O)c2ccc(C(=O)Nc3ccccc3N3CCOCC3)cc2C1=O,4388,-9,3,-1.8,-1,9,-23
Oc1ccc(/C=N/NP(=S)(c2ccccc2)c2ccccc2)cc1,8880,·,·,·,·,-1,-45
COc1ccc(-c2csc(NC(=O)CSc3n[nH]c(N)n3)n2)cc1,4518,7,6,13,5,3,-47
O=c1c2c([nH]c3ccccc13)CCCCC2,4745,-5,-2,3.1,-1,3,-6
CCN(CC)C(=O)C1CCCN(c2ccc([N+](=O)[O-])cc2C=NNC(=O)c2ccc([N+](=O)[O-])cc2)C1 (stereo not given),·,-78,-12,0.4,0,·,·
O=S(=O)(Nc1cccnc1)c1ccc(C2CCCCC2)cc1,2740,·,·,19,-12,9,-14
C=C(C)C(=O)Nc1cccc(C2=NOC3(C2)C[C@@H](C(N)=O)N(C(=O)[C@H]2CCC(=O)N2)C3)c1 (stereo not given in full),3026,·,·,·,·,6,-11
Nc1ccc(C2(c3ccc(N)cc3)C(=O)Nc3ccccc32)cc1,9633,5,7,6.4,-4,-3,-9
O=C(CSc1nnc(-c2ccccc2Br)o1)Nc1nncs1,4268,-6,-4,7.4,7,·,-23
Cc1cc(C)c(NC(=S)N(Cc2cccnc2)Cc2ccco2)c(C)c1,7149,8,-3,3.6,10,0,-11
CCNC(=O)N1CCCC(C(=O)c2ccc(OC)c(OC)c2)C1 (stereo not given),4412,-1,8,12,3,2,-13
CC1CN(Cc2c(O)ccc3c2oc(=O)c2ccccc23)CC(C)O1 (stereo not given),3593,3,3,5.7,-6,-2,-21
COC1=C(N2CCOCC2)C(=O)c2ccccc2C1=O,3852,13,3,6.4,3,-1,-32
O=C(CCc1ccccc1)NC(=S)Nc1ccc2c(c1)C(=O)OC2,4187,14,8,-0.3,7,0,-44
CN1C(=O)Cc2cc(S(=O)(=O)N3CCN(c4cccc(C(F)(F)F)c4)CC3)ccc21,5643,-8,-6,2.8,4,2,-2
O=C(N1CCCCC1)N1CCN(C(=O)N(c2ccccc2)c2ccccc2)CC1,9131,0,3,3.0,3,4,-24
O=S(=O)(Nc1ccc(N2CCCCC2)cc1)c1ccccc1F,5018,·,·,3.4,5,0,·
O=C(Cc1cccc(C(F)(F)F)c1)NCc1ccc(Cl)cc1,2705,12,5,-4.2,-4,1,-18
CC(=NNC(=O)COc1cc(C)ccc1C(C)C)C(=O)O,·,-3,6,8.5,5,·,·
CCCCC1C(=O)N(c2ccccc2)N(c2ccc(O)cc2)C1=O (stereo not given),4451,5,4,0.7,-14,·,-10
O=S(=O)(Cc1nnnn1-c1ccc(Br)cc1)c1ccc(F)cc1,5249,-8,7,-1.6,-2,-1,2
Cc1ccn2c(=O)nc(SCC(=O)Nc3ccc4c(c3)OCO4)nc2c1,5392,-2,3,1.9,0,0,-13
N#Cc1ccccc1S(=O)(=O)N1CCN(C(=O)C2CCCCC2)CC1,3201,1,-4,2.3,2,·,-13
CN(C)C(=O)C(OC(=O)c1ccc2ccccc2n1)c1ccccc1 (stereo not given),5422,-5,2,6.2,-4,5,0
O=C(c1ccco1)N1CCN(Cc2ccc(Cl)cc2)CC1,4803,·,·,-0.4,2,1,-3
CCOC(=O)Nc1nn(-c2ccc(C)cc2)c(=O)c(C#N)c1C,4226,2,9,4.0,11,-6,-16
COc1cccc(OCCCN2CCN(S(=O)(=O)c3ccc(NC(C)=O)cc3)CC2)c1,20823*,-7,4,0.3,-4,8,-5
Cc1ccc(NC(=O)CSc2nc(N)c(-c3ccccc3)c(=O)[nH]2)cc1Cl,2568,14,-3,-0.2,-1,4,-27
CSc1ccc(S(=O)(=O)N2CCC(C(=O)NCc3ccccn3)CC2)cc1,3761,-3,-18,3.7,6,-9,1
Cc1c(NC(=O)c2ccccc2NC(=O)c2ccccc2)cccc1C(=O)O,3436,1,-6,7.9,11,-10,-4
Cc1cc(NC(=O)CSc2nnc(COc3ccccc3)o2)no1,4242,·,·,0.7,0,-2,-20
CCCc1c(C(=O)N/N=C/c2cccs2)nnn1-c1nonc1N,5283,·,·,·,·,-4,-18
O=C(COc1ccc(Br)cc1)OCc1nnc(-c2ccccc2)o1,4687,8,4,3.9,-3,-1,-12
COCC1CCN(C(=O)C2CCC(=O)N(Cc3cccc(C(F)(F)F)c3)C2)CC1 (stereo not given),4751,3,0,5.3,13,-3,-11
CSCCC(NC(=O)c1ccc([N+](=O)[O-])cc1Cl)C(=O)OCC(=O)C12CC3CC(CC(C3)C1)C2 (stereo not given),3189,14,-2,2.3,-1,-2,-16
COc1ccc(OC)c(CCNC(=O)Cn2cccc2C(=O)c2ccccc2C)c1,5079,10,7,-4.5,-1,6,-45
CCO[C@H]1OC(C(=O)NCc2ccccc2)=C[C@@H](c2ccc(C(F)(F)F)cc2)[C@@H]1CCCO,3963,·,·,·,·,-22,-2
COc1ccc2oc(C(=O)Nc3nc4ccc(S(C)(=O)=O)cc4s3)c(C)c2c1,6107,-7,-7,3.4,3,9,-12
CCCc1cc(=O)oc2c(C)c3occ(C)c3cc12,7515,9,6,12,0,1,5
O=S(=O)(Oc1ccc(Cl)cc1)c1cccc2cccnc12,6398,3,9,6.0,-4,-5,·
Cc1ccc(/C=C2/Sc3ccccc3N(CC(=O)NCCCOC(C)C)C2=O)cc1,6105,4,5,4.8,5,9,-17
c1ccc(-n2nnc(-c3nccs3)n2)cc1,2954,14,10,9.2,-1,9,-27
Cc1n[nH]c(C)c1S(=O)(=O)N1CCCC(C(=O)NCC2COc3ccccc3O2)C1 (stereo not given),4254,·,·,-4.8,1,2,-13

Among those listed so far, these contain an aryl methoxy group.
molecule,Autofluor counter,Mtb hypoxia rep,Mtb hypoxia rep growth,Sa RN4220 lethal,ugtP null kill,BJeLR viability,PrP UTR inh
CCC(C(=O)Nc1cc(OC)c(NC(=O)c2ccccc2)cc1OC)c1ccccc1 (stereo not given),·,-12,-1,3.5,6,-2,9
COc1ccc2c(c1OC)C(=O)N1C2SC(C)(C)[C@H]1C(=O)NC(C)C (stereo not given in full),3833,-12,1,1.3,-7,-7,2
CCC(C)N1CC(=O)N2C(c3ccc(OC)cc3OC)c3[nH]c4ccccc4c3C[C@H]2C1=O (stereo not given in full),3779,-12,2,4.0,6,3,·
COc1ccc(CCNC(=O)c2c(C)nc3ccccn23)cc1OC,3114,21,5,-0.8,0,-3,9
COc1ccc(NC(C)=O)c([N+](=O)[O-])c1[N+](=O)[O-],4250,9,4,11,-5,·,-6
COc1ccc(C2=NN(C(=O)CN3CCCCC3)C(c3ccc(C)cc3)C2)cc1 (stereo not given),4148,16,5,7.9,2,19,-34
COc1cc(S(=O)(=O)Nc2ccc(Br)cc2)ccc1N,4295,-5,-2,1.0,17,7,-19
COc1ccc(-c2csc(NC(=O)CSc3n[nH]c(N)n3)n2)cc1,4518,7,6,13,5,3,-47
CCNC(=O)N1CCCC(C(=O)c2ccc(OC)c(OC)c2)C1 (stereo not given),4412,-1,8,12,3,2,-13
COc1cccc(OCCCN2CCN(S(=O)(=O)c3ccc(NC(C)=O)cc3)CC2)c1,20823*,-7,4,0.3,-4,8,-5
COc1ccc(OC)c(CCNC(=O)Cn2cccc2C(=O)c2ccccc2C)c1,5079,10,7,-4.5,-1,6,-45
COc1ccc2oc(C(=O)Nc3nc4ccc(S(C)(=O)=O)cc4s3)c(C)c2c1,6107,-7,-7,3.4,3,9,-12
